TRPML1 ag: qHTS for Agonists of the Human Mucolipin Transient Receptor Potential 1 (TRPML1) | Mucolipin-1 (Homo sapiens), Q9GZU1 | TRPML1-expressing cells, Ca2+ dye fluorescence, FDSS; host cell line not named in the record; reference of the full effect not given here | activation, % (test concentration not listed) | 0.12% of 410,000 active | AID 624414, 2012; in the data active = activation above about 50%; inconclusive = about 30% to 50%; inactive = below about 30%; note: 0% is about no effect; the text of the record puts the active cut at 80%
Target sequence (Q9GZU1 whole entry, looked up): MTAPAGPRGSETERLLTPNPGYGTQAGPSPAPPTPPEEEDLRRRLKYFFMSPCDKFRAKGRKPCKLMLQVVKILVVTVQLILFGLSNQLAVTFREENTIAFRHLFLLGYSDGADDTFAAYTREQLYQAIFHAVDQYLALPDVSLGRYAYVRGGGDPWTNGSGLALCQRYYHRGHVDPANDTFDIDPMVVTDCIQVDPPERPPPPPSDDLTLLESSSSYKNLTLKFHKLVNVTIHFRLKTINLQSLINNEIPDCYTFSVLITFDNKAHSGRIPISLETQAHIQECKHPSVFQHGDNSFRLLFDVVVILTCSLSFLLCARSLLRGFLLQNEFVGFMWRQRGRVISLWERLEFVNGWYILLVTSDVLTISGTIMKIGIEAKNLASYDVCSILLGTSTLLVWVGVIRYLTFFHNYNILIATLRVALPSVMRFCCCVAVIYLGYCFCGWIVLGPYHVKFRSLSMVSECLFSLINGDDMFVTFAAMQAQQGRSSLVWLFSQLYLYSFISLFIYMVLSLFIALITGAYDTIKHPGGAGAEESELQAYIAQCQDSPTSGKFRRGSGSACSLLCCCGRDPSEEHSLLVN
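TRPML1-DL cells, Tet-induced overnight (~16 h, 37 degrees C), loaded 45-90 min at room temperature with Ca8 no-wash calcium dye plus quencher. FDSS fluorescence: 10 s baseline, compound pin-transfer, 110 s agonist read, then EC80 54-4 (4uM final) and 110 s antagonist read.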
PINK1 expr mod: A Quantitative High throughput Screen to Identify Chemical Modulators of PINK1 Expression; PINK1 immunofluorescence, high-content cytometry, 24 h; Potency, µM (series often up to 76.6 µM), inactives show top-dose activation (PINK1 increase), actives largely listed as activators; 0.2% of 410,000 active; active = well fitted activation curve with a large enough effect; inconclusive = small, poorly fitted or top-dose-only effect; inactive = flat fitted curve, though single readings scatter; cell line not stated here;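 note: potency is the fitted concentration of half-maximal effect; % of control where 0% means no effect; nearly all actives have a fitted effect of over 65% in size; a mitochondrial uncoupler was the plate control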
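Decision-based qHTS: stable cells, 24 h exposure to five compound concentrations, CCCP as control. Fixed cells stained for PINK1 plus nuclear, mitochondrial and cell markers, cytometer read.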
D2 potentiator: Beta-Arrestin HTS for Positive Allosteric Modulators of the Human D2 Dopamine Receptor: Potentiators | D(2) dopamine receptor (Homo sapiens), P14416 | DiscoveRx D2 beta-arrestin cells, luminescence, 90 min; 100% = 57 uM dopamine signal | potentiation, % (test concentration not listed) | 0.23% of 360,000 active; active = potentiation of 50% or more; inconclusive = 30% to 50%; inactive = 30% or less;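 note: compound concentration not given in the record; tested on top of an EC20 dose of dopamine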
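D2 cells co-treated with compound plus 50 nM dopamine (EC20) for 90 min at 37 deg C to detect potentiation. Beta-arrestin recruitment was read as enzyme-fragment luminescence after 1 h at ambient temperature. Full response was set by 57 uM dopamine.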
D2 agonist: Beta-Arrestin HTS for Positive Allosteric Modulators of the Human D2 Dopamine Receptor: Agonists. DiscoveRx PathHunter D2 beta-arrestin, luminescence, 90 min; 100% = 57 uM dopamine signal. activation, % (no concentration beside the values). 0.084% of 360,000 active; in the data active = activation above about 40%; inconclusive = about 15% to 40%; inactive = below about 15%; note: compound concentration not given in the record; the text of the record calls up to 30% inactive
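Agonist mode: compounds alone added to overnight-plated D2 PathHunter cells for 90 min at 37 C, with 57 uM final dopamine (EC100) defining full response. Beta-arrestin recruitment detected by chemiluminescent reagent, read after 1 h at ambient temperature.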
CtBP-E1A inh: qHTS Assay for Inhibitors of the CtBP/E1A Interaction. AlphaScreen GST-E1A/His-CtBP binding, 1536-well; hits give low values; control for the full effect not named in the record. 0.49% of 340,000 active. activity change, % (test concentration not listed). CtBP / adenovirus E1A interaction (AlphaScreen). AID 651724, 2012; in the data active means activity change below about -65%; inconclusive means about -30% to -65%; inactive means above about -30%; note: % is set by controls: 0 for no effect and ±100 for the full control effect; compound concentration not given in the record
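GST-E1A and His-tagged CtBP (125 nM each as 5X stock) were preincubated with pin-transferred compound for 2 h at 37 °C in the dark, then glutathione donor and nickel acceptor beads were added for 1 h before AlphaScreen reading.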
Six1-Eya2 blk: qHTS Assay for Inhibitors of the Six1/Eya2 Interaction | activity change, % (test concentration not listed) | 0.56% of 360,000 active | AlphaScreen GST-Six1/His-Eya2 binding, biochemical; hits give low values; control for the full effect not named in the record | Homeobox protein SIX1 (Homo sapiens) + Protein phosphatase EYA2 (Homo sapiens), … | AID 651725, 2012; in the data active = activity change below about -65%; inconclusive = about -30% to -65%; inactive = above about -30%; note: % is set by controls: 0 for no effect and ±100 for the full control effect; compound concentration not given in the record
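AlphaScreen luminescence read after one hour at 37 °C in darkness. Pin-transferred compounds met GST-Six1 and His-Eya2 protein (5X stock 250 nM/500 nM) plus glutathione donor and Ni-chelate acceptor beads (5X, 50 ug/mL).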
* = called active by the depositor; ? = inconclusive; · = no result given; & = joins results of further samples; [ ] = another dose, or the depositor's remark.

SMILES	TRPML1 ag	PINK1 expr mod	D2 potentiator	D2 agonist	CtBP-E1A inh	Six1-Eya2 blk
O=S(=O)(NC1CCCCC1Oc1ccccc1)c1ccc(Cl)cc1 (stereo not drawn)	-0.2	0.6%	-1.0	-0.1	1.9	21.5
FC(F)(F)c1cc(-c2cccs2)nc(N2CCOCC2)n1	0.0	14.8%	-4.9	-3.8	23.3	29.8
COc1cc(/C=C2/NC(=O)NC2=O)cc(Br)c1OCc1ccccc1	1.5	-2.3%	-9.6	-2.2	-6.7	1.1
CNC(=O)CSc1nnc(-c2ccco2)n1-c1ccccc1	0.1	-1.0%	0.7	0.0	2.8	-3.6
O=C(O)c1cccc(NC(=O)C23CC4CC(C2)CC(n2cnc(Cl)n2)(C4)C3)c1	0.2	1.2%	-4.5	2.4	1.8	4.7
COc1cccc(-c2nnc(N(C)C(=O)C3CCOC3)s2)c1 (stereo not drawn)	-0.2	0.0%	7.5	-1.1	4.7	-2.2
Cc1occc1C(=O)NCc1ccccc1F	0.5	-3.5%[38.3 µM]	-6.8	-1.6	0.1	-0.8
COc1ccc(C(=O)N/C(=C\c2ccccc2)C(=O)NC(CC(C)C)C(=O)O)cc1 (stereo not drawn)	-0.4	3.1%	-2.1	-5.3	8.9	12.2
C#CCOc1ccc(/C=C2/C(=O)NN(c3ccccc3)C2=O)cc1OC	-0.2	0.4%	-10.9	1.5	5.0	3.8
CN(C)CCCN(C(=O)c1ccco1)c1nc2c(F)cc(F)cc2s1	-0.8	-0.1%	-11.9	-7.9	-9.3	0.4
COc1cc(S(=O)(=O)NC(C)C)ccc1Cl	0.0	-0.2%[38.3 µM]	-8.7	-3.4	0.2	1.4
COCCOc1ccc(C(F)(F)F)cc1NC(=O)c1ccccc1F	1.5	25.4%	-6.5	-6.0	8.3	10.8
COc1ccccc1N1CCN(c2nnc(-c3ccc(F)cc3)c3ccccc23)CC1	0.5	1.9%	-31.6	-1.4	4.3	6.8
CC(C)(C)N(Cc1ccccc1)C(=O)COC(=O)CN1C(=O)NC2(CCCC2)C1=O	-0.1	2.1%	-7.5	0.7	2.5	3.0
CCn1c(=O)c(C(=O)NCc2ccc(F)cc2)c(O)c2ccccc21	0.5	17.2%	3.7	-1.2	37.1	20.6
O=C(Nc1ccccc1)[C@@H]1CC=C[C@@H]2CCN(C3CCCCC3)C(=O)[C@@H]21	0.2&-0.8	0.2%	-8.0	-0.6	·	-0.3
CN(CC(=O)Nc1ccccc1Cl)C(=O)CN1C(=O)C2CC=CCC2C1=O (stereo not drawn)	2.8	0.7%	-0.2	-3.3	-11.3	4.0
C[C@H](CO)N1C[C@H](C)[C@@H](CN(C)Cc2ccccn2)Oc2ncc(-c3ccccc3)cc2C1=O	-0.4	2.9%	-6.4	-7.9	-5.4	-4.0
O=S(=O)(Nc1cccc2ccccc12)N1CCCC1	0.1	4.2%[38.3 µM]	-15.1	-0.9	0.6	-2.4
O=S(=O)(c1ccc(F)cc1)N1CCC(O)(c2ccc3c(c2)OCO3)CC1	3.7	-2.6%[38.3 µM]	-11.6	0.3	16.8	-3.5
Cc1nc(N2CCN(Cc3ccc4c(c3)OCO4)CC2)nc2c1C(=O)CC(c1ccco1)C2 (stereo not drawn)	1.4	-1.6%[38.3 µM]	-16.2	-3.4	-21.8	-18.7
C[C@@H]1CN([C@@H](C)CO)C(=O)c2cc(C#CC3CCCCC3)cnc2O[C@@H]1CN(C)S(=O)(=O)c1ccc(F)cc1	1.8	?	0.9	-9.7	6.6	4.8
Cc1ccc(N(CC(=O)N2CCCC2)S(C)(=O)=O)c(C)c1	-0.3	0.1%	-0.3	-0.9	7.6	7.0
O=S(=O)(Nc1cccc(-n2cnnn2)c1)c1ccccc1F	0.8	-0.4%	-1.5	-5.7	·	9.4
CC1CCN(S(=O)(=O)c2cc(Br)cc(C(=O)NC3=NCCS3)c2)CC1	0.1	2.5%	9.0	1.2	1.9	-1.8

Further compounds follow:
SMILES	TRPML1 ag	PINK1 expr mod	D2 potentiator	D2 agonist	CtBP-E1A inh	Six1-Eya2 blk
COc1ccc(S(=O)(=O)N2CCOCC2)cc1NC(=O)c1cc(=O)[nH]c2ccccc12	-0.9	-0.8%	-2.2	1.0	·	-5.5
Cc1c(C(=O)NNc2c(Cl)cccc2Cl)n(C)oc1=O	0.4	0.3%	-4.5	-4.3	6.7	-0.7
O=C(NCCN1CCOCC1)C1CCC(CNS(=O)(=O)c2ccc(Cl)cc2)CC1 (stereo not drawn)	-0.4	1.1%[38.3 µM]	0.1	-1.0	49.4	2.5
Cc1ccc(C(C)C)c(OCc2nnc(SCC(=O)Nc3nccs3)n2C)c1	1.1	3.5%[38.3 µM]	-5.9	-0.4	9.7	2.4
CCOC(=O)c1c(C)c2c(=O)[nH]cnc2n1-c1ccccc1	2.6	0.7%	-7.3	2.3	·	1.6
O=C(O)c1ccc(Cl)c(S(=O)(=O)Nc2ccccc2Cc2ccccc2)c1	-0.1	0.7%	-3.7	1.7	1.2	0.1
CSc1ccc(CNCC(O)c2ccccc2)cc1 (stereo not drawn)	-1.0	-0.5%	4.2	2.1	3.4	5.8
CCN(C(=O)c1cc(Cl)ccc1Cl)C1CCS(=O)(=O)C1 (stereo not drawn)	0.3	2.7%	3.7	-0.9	4.5	0.0
O=C(Nc1cccc(O)c1)C(=O)Nc1ccccn1	-0.5	0.5%	-0.5	-1.0	-3.5	-10.5
O=C(c1cc(-c2ccc(Br)cc2)on1)N1CCCCCC1	-0.1	9.2%	-3.6	6.9	5.9	5.4
O=C(CSc1nc2c(cnn2-c2ccccc2)c(=O)[nH]1)c1ccc(Cl)cc1	0.8	-1.3%[38.3 µM]	-11.5	0.5	-1.5	-2.1
O=C(CS(=O)(=O)c1ccccc1)N1CCc2ccccc21	-0.5	3.0%	-5.2	2.8	2.6	9.1
CCOC(=O)C1=C(C)N(CCC(=O)O)C(=O)NC1c1ccccc1Cl (stereo not drawn)	-0.4	-0.8%	-12.3	-4.1	0.7	7.1
COCc1ccc(C(=O)NC2CC(C)(C)Cc3c2cnn3-c2ccc(OC)cc2)o1 (stereo not drawn)	0.1	1.4%	-3.0	-3.1	-1.2	1.9
Cc1ccc(CN2C(=O)CCC2C(=O)NCCN2CCOCC2)cc1 (stereo not drawn)	4.7	-0.3%	8.2	-2.4	6.7	1.9
COC(=O)C1=CN(c2ccc(F)cc2)C=C(C(=O)OC)C1c1ccc([N+](=O)[O-])cc1	0.8	-2.1%	-19.7	-1.9	-29.7	-25.0
O=C(CSc1ccc(Cl)cc1)Nc1cccc(-c2nnc(-c3ccco3)o2)c1	3.3	14.1%	-2.6	0.4	2.7	6.1
CCC/C(O)=C1\C(=O)CCCC1=NCCc1c(C)[nH]c2ccc(C)cc12	1.1	4.4%	1.0	2.4	-21.3	-10.8
CCc1cccc(CC)c1NC(=O)C1CC(=O)N(c2ccc3c(c2)OCCO3)C1 (stereo not drawn)	1.5	-1.2%	4.4	-2.7	-12.8	2.0
COc1ccc(CNC(=O)c2cccc(-c3ccc(C)c4ccccc34)n2)cc1	0.2	0.3%	-3.5	-3.0	·	-5.5
Cc1ccc2c(c1)Oc1ccc(NC(=O)CCCl)cc1C(=O)N2	1.1	3.3%	-6.1	4.2	·	6.4
Cn1c(SCC(=O)N2CCOCC2)nnc1-c1ccc(Cl)cc1Cl	-0.6	-1.2%[38.3 µM]	-13.8	-2.4	4.0	-1.0
CCc1nc2c(OCc3ccc(F)cc3)cccn2c1N(C)C(=O)C(C)C	3.7	3.4%	-8.3	-3.4	-4.3	2.6
CCC(C)N1C(=O)N(C)C2NC(=O)NC21 (stereo not drawn)	1.7	0.2%	-0.4	-1.7	2.7	0.4
CC1CCCCC1NC(=O)CSc1nnnn1C (stereo not drawn)	0.3	2.2%	2.5	-0.5	4.0	0.3
O=C(NCc1ccco1)c1cnn2c(C(F)(F)F)cc(-c3ccccc3)nc12	0.5	7.7%[38.3 µM]	9.7	-0.1	43.6	-10.5
C=CCCC(=O)N1C[C@H]2CON(C)[C@H]2C[C@H]1c1ccc(-n2ccnc2)cc1	-0.2	-0.4%	0.4	-1.6	0.3	-1.5
COc1ccc([C@H]2C[C@@H](n3cc(-c4ccc(F)cc4)nn3)[C@H](O)CN2CC2CCCCC2)cc1	-0.6	1.8%	5.8	-0.5	5.8	-4.0
O=[N+]([O-])c1cnn(-c2nc(-c3ccco3)cc(C(F)(F)F)n2)c1	-1.1	4.1%	-3.5	-0.2	6.6	-7.4
CSc1nc(-c2ccc(C)cc2)nc(C(Cl)Cl)n1	-0.9	-5.1%	-10.3	-1.5	2.3	3.0
